Hsc70 ATP site = small molecules displacing fluorescent ligand from Hsc70 – biochemical, fluorescence polarization, primary screen (AID 568) | Hsc70 fluorescence polarization, probe displacement; higher % means a stronger effect; strong numbers were not always called active | displacement, % at 20 µM, or IC50 in µM where a hit was titrated | 83,000 tested, under 10 active;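 active = displacement above 50% without optical interference and an IC50 on retest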;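 also: ATPase domain with a fluorescein-tagged ATP probe; 0% = vehicle and 100% = excess ADP; read after one hour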
WNV NS2B-NS3 inh = blocks West Nile virus NS2B-NS3 protease activity | P06935 | WNV NS2B-NS3 protease, fluorogenic substrate Ex360/Em465; stronger effect = lower value | 0.18% of 65,000 active | AID 577 | z-score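 (tested at a level between 10 and 100 µM)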;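 active = z-score at -3 or under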;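 also: score is relative to mean and spread of the compound wells of a plate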
Target sequence (P06935 1371-1501 limits assumed): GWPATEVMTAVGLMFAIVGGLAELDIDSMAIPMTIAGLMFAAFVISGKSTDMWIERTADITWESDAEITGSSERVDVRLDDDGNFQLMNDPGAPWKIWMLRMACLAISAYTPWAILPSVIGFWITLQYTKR
Target sequence (P06935 1502-1679 limits assumed): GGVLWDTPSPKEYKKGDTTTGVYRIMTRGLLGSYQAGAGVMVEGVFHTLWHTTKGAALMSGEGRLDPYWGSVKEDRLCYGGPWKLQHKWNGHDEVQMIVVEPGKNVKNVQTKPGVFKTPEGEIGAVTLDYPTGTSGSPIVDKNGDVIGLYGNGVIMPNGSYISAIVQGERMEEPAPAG
MT1-MMP reporter = inhibitors of MT1-MMP promoter transcription, cell-based, luciferase reporter, luminescence (AID 618); MT1-MMP promoter luciferase reporter cells, luminescence; calls from a first round at 10 µM; hits with a dose series show EC50 in µM; 0.62% of 87,000 active;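 active = over half of the reporter light lost at 10 µM or EC50 under 50 µM; inactive = the rest and hits that failed the dose series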;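 also: actives suppress MT1-MMP promoter-driven transcription so potencies describe inhibitors; HT1080 fibrosarcoma cells; overnight exposure; toxic or luciferase-blocking compounds were not removed from the actives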
* hit, by the source's call; i = inactive; nt = not tested or not shown.

Value order – Hsc70 ATP site	WNV NS2B-NS3 inh	MT1-MMP reporter
[1] COC1(OC)C(=N/O)/C(=N\O)CCC1O (centres undefined)
  -1.2%	-0.51	i
[2] COCCNC(=O)C(c1cccs1)N(C(=O)Cn1nnc2ccccc21)c1ccc2c(c1)OCO2 (centres undefined)
  1.8%	-0.76	i
[3] N#CCCN(Cc1cccnc1)C(=O)Nc1cccc(Cl)c1
  3.6%	-0.8	i
[4] C/C(=N\NC(=S)Nc1ccc(F)cc1)C1CC1
  -9.6%	nt	i
[5] CCc1nn(-c2ccccc2)c(N)c1-c1ccc(OC)c(OC)c1
  3.5%	nt	i
[6] CC(=O)c1c(C(C)=O)c(C)n(-c2nc(-c3cccs3)c(C)s2)c1C
  -1.9%	-0.49	i
[7] COc1cc2c(C(=O)N3CCN(C)CC3)c(C)n(-c3ccccc3)c2cc1Br
  3.6%	nt	i
[8] Cc1ccc(NC(=O)C2CC(c3ccc(F)cc3)=NO2)cc1 (centres undefined)
  -0.9%	-0.46	i
[9] Cc1nc(C)c(C(=O)C2=C(O)C(=O)N(CCN3CCOCC3)C2c2cccs2)s1 (centres undefined)
  1.0%	-0.39	i
[10] CC(C)c1nc(NCC2CCCO2)c(C#N)c2c1COC(C)(C)C2 (centres undefined)
  -2.6%	-0.85	i
[11] C=CCN1C(=NC(=O)CC)SC2CS(=O)(=O)CC21 (centres undefined)
  -2.1%	nt	i
[12] Nc1nonc1-c1nc2ccccc2n1Cc1ccc(F)cc1
  2.2%	0.47	i
[13] O=C(Nc1ccc2nc(-c3ccccn3)[nH]c2c1)C1CCCCC1
  -0.4%	nt	i
[14] COc1ccccc1NC(=O)c1ccc(Br)o1
  12%	-1	i
[15] COc1ccccc1NC(=O)c1cn(C)c(=O)c2cc(OC)c(OC)cc12
  -3.3%	-0.36	i
[16] COc1cc(/C=N/N(C)c2ccccc2)ccc1O
  4.5%	nt	i
[17] COc1ccc(C(=O)OCC(=O)NCc2ccco2)cc1OC
  -3.6%	-0.12	i
[18] OCCCNC(c1ccccc1)c1ccc(O)cc1 (centres undefined)
  4.9%	1.7	i
[19] O=C(Nc1ccccc1)c1cc(N2CCOCC2)nc2ccccc12
  -5.9%	-0.33	i
[20] CCOC(=O)c1[nH]c2ccccc2c1NC(=O)CC(C)(C)C
  0.4%	-0.91	i

From entry 1 as far as 2, copied from above:
Value order – Hsc70 ATP site	WNV NS2B-NS3 inh	MT1-MMP reporter
[1] COC1(OC)C(=N/O)/C(=N\O)CCC1O (centres undefined)
  -1.2%	-0.51	i
[2] COCCNC(=O)C(c1cccs1)N(C(=O)Cn1nnc2ccccc21)c1ccc2c(c1)OCO2 (centres undefined)
  1.8%	-0.76	i

Pulled by compound from the list above (3):
Value order – Hsc70 ATP site	WNV NS2B-NS3 inh	MT1-MMP reporter
[8] Cc1ccc(NC(=O)C2CC(c3ccc(F)cc3)=NO2)cc1 (centres undefined)
  -0.9%	-0.46	i
[11] C=CCN1C(=NC(=O)CC)SC2CS(=O)(=O)CC21 (centres undefined)
  -2.1%	nt	i
[15] COc1ccccc1NC(=O)c1cn(C)c(=O)c2cc(OC)c(OC)cc12
  -3.3%	-0.36	i

Remaining list, next part
Value order – Hsc70 ATP site	WNV NS2B-NS3 inh	MT1-MMP reporter
[21] COc1ccc(N2CCN(C(=O)c3ccc(NS(=O)(=O)c4ccc(F)cc4)cc3)CC2)cc1
  -4.4%	-1	i
[22] CC1(C)CC2CC(C)(CN2C(=O)COC(=O)c2n[nH]c(=O)c3ccccc23)C1 (centres undefined)
  4.4%	1.4	i
[23] N#CCSc1ncnc2sc3c(c12)CCC3
  -6.5%	0.83	i
[24] CN(C)S(=O)(=O)n1cnc(-c2ccccc2)c1-c1ccccc1
  7.1%	-1.1	i
[25] CCOC(=O)C(CC)Sc1ncnc2c1nnn2-c1ccc(F)cc1 (centres undefined)
  45%	-1.5	i
[26] O=C(O)c1ccc(-n2nnnc2SCc2ccccc2F)cc1
  -3.1%	-2.6	i
[27] CC(=O)OCC(=O)[C@@]12OC(C)(C)O[C@@H]1C[C@H]1[C@@H]3C[C@H](F)C4=CC(=O)C=C[C@]4(C)[C@@]3(F)[C@@H](O)C[C@@]12C
  -4.8%	0.00022	i
[28] O=C(COc1ccccc1)N(Cc1ccco1)C1CCS(=O)(=O)C1 (centres undefined)
  3.1%	0.28	i
[29] CCCCN1C(=O)CN(CCc2ccccc2)C(=O)C1c1ccc(OC)cc1 (centres undefined)
  2.6%	-0.74	i
[30] CC(C)c1ccc(NC(=O)c2csnn2)cc1
  -0.7%	2.9	i
[31] OC(COc1ccc2c(c1)CCC2)CN1CCN(c2cccc(Cl)c2)CC1 (centres undefined)
  9.0%	nt	i
[32] O=C(Cn1ncc2c1-c1ccccc1OC2)N1CCN(c2ccccn2)CC1
  4.8%	0.43	i
[33] CN1c2ccsc2/C(=N/NC(=O)c2c(F)cccc2F)CS1(=O)=O
  1.8%	nt	i
[34] N#C/C(=C\c1ccc(Sc2nc3ccccc3[nH]2)o1)c1ccccc1
  -7.2%	nt	i
[35] O=C(COC(=O)c1ccccc1C(=O)c1ccccc1)c1ccco1
  0.1%	0.59	i
[36] COc1ccc(S(=O)(=O)NCCC(C)C)cc1C
  -0.7%	nt	i
[37] CCOC(=O)N1CCN(C(=O)Nc2ccc(Cl)cc2Cl)CC1
  4.0%	-1.7	i
[38] O=C(Cn1c(CO)nc2ccccc21)Nc1cc(C(F)(F)F)ccc1N1CCOCC1
  -1.4%	0.41	i
[39] Cn1c(=O)c2c(nc(NCc3ccco3)n2Cc2ccccc2Cl)n(C)c1=O
  0.8%	0.71	i
[40] c1cncc(C(c2nnnn2C2CCCC2)N2CCN(Cc3ccc4c(c3)OCO4)CC2)c1 (centres undefined)
  0.3%	0.08	i
[41] CCN1CCN(c2oc(-c3ccc(OC)cc3)nc2C#N)CC1
  0.0%	0.26	i
[42] CC(NS(=O)(=O)c1ccc(Br)cc1)C(c1cccs1)N1CCN(C)CC1 (centres undefined)
  -0.3%	2.8	i
[43] CCN(CC)C(=O)CSc1nc2ccccc2n1CC(=O)N1CCN(c2ccccc2OC)CC1
  0.7%	nt	i
[44] Cc1ccc(N2CCN(C(=S)c3ccc(N(C)C)cc3)CC2)cc1
  -3.1%	-0.5	i
[45] O=C(NCCN1CCN(c2ccccc2F)CC1)C1CCCN(S(=O)(=O)c2cnc[nH]2)C1 (centres undefined)
  3.0%	-0.008	i
[46] COc1ccccc1Nc1nc2ccccc2n1C
  -0.9%	-0.46	i
[47] CCOC(=O)Cc1[nH]nc2c1C(c1cc(OC)ccc1OC)C(C#N)=C(N)O2 (centres undefined)
  -9.9%	0.26	i
[48] COc1ccc(-c2cc(C(=O)N3CCN(c4ccccc4)CC3)c3ccccc3n2)cc1OC
  -2.2%	nt	i
[49] O=C(CSc1nc(-c2ccccc2Cl)ns1)NCc1ccco1
  0.5%	0.8	i
[50] O=C(Nc1ccc(NC(=O)C2CC2)nc1)c1cccs1
  -9.4%	-0.16	i
[51] CN=C(Nc1cc(C)nn1-c1ccccc1)c1ccccc1
  1.7%	0.4	i
[52] Cc1nnc(SCCN2C(=O)c3ccccc3C2=O)[nH]c1=O
  -1.0%	0.32	i
[53] Cc1ccc2cc(CN(Cc3ccco3)C(=O)NCc3ccccc3)c(=O)[nH]c2c1C
  -5.1%	0.21	i
[54] Cc1cc(C(F)F)n2nc(C(=O)O)nc2n1
  3.5%	0.39	i
[55] CCc1nnc(NC(=O)CN2CCN(c3cccc(OC)c3)CC2)s1
  -2.2%	nt	i
[56] C=C(C)COc1ccc(-c2[nH]ncc2-c2ccccc2OC)c(O)c1
  -1.9%	0.88	i
[57] O=C(c1coc2ccccc2c1=O)N1CCN(c2cccc(C(F)(F)F)c2)CC1
  -0.8%	-0.66	i
[58] COC(=O)c1nnn(-c2nonc2N)c1CSc1ccccn1
  5.9%	-0.65	i
[59] CSc1ccccc1N=CC1=C(O)CC(C)(C)CC1=O
  1.6%	-0.05	i
[60] COc1cccc(NC(=O)NC2CCN(Cc3nnnn3Cc3ccc(F)cc3)CC2)c1
  -5.2%	0.14	i
[61] CCOCCCNC(=O)C(NC(=O)CNC(C)=O)c1ccc(C)cc1 (centres undefined)
  -0.2%	nt	i
[62] COC(=O)c1[nH]c2cccc(OC)c2c1NC(=O)CN1CCC(C(N)=O)(N2CCCCC2)CC1
  -4.8%	1.4	i
[63] Cc1[nH]n2c(=O)cc(-c3ccc([N+](=O)[O-])cc3)nc2c1-c1ccccc1
  1.3%	nt	i
[64] CCCCNC(=O)CS(=O)Cc1nc(-c2ccc(C)cc2)oc1C (centres undefined)
  3.0%	-0.64	i
[65] CCN1CCN(C(c2cccs2)C(C)NC(=O)c2cccc(OC)c2)CC1 (centres undefined)
  3.1%	1.5	i
[66] CCC(C(=O)NCc1ccccc1OC)n1nc(C)n2c(cc3occc32)c1=O (centres undefined)
  -3.5%	nt	i
[67] O=C(O)CCC(=O)Nc1ccc(-c2nnc(-c3ccco3)o2)cc1
  6.3%	2.1	i
[68] COc1ccc(OCC(O)CNC(=O)c2ccc(Br)cc2)cc1 (centres undefined)
  -0.3%	-0.18	i
[69] CC(NC(=O)CN1CCCC1)C12CC3CC(CC(C3)C1)C2 (centres undefined)
  2.6%	nt	i
[70] C=CCN1C(=O)C(O)=C(C(C)=O)C1c1ccccc1F (centres undefined)
  0.2%	2.8	i
[71] O=C(Cn1ccc2ccccc2c1=O)Nc1ccc2c(c1)OCO2
  -1.0%	0.27	i
[72] CCc1nn(CC(=O)NCCCN(Cc2ccccc2)C(C)C)c(=O)c2cc3sccc3n12
  0.9%	-0.68	i
[73] Cc1cc(C)n(-c2nc3sc4c(c3c3nnc(SC(C)C)n23)CC(C)(C)OC4)n1
  -6.6%	0.67	i
[74] CC1CCC(N2CCN(c3ncccn3)CC2)CC1 (centres undefined)
  1.8%	-0.7	i
[75] CC(=O)c1cccc(NC(=O)c2cc(C(C)C)on2)c1
  4.4%	0.24	i
[76] COc1ccc(OC)c(NC(=O)Nc2cccc3ccccc23)c1
  1.4%	nt	i
[77] CC(C)(O)c1nnn(-c2ccccc2)c1C(F)(F)F
  -2.9%	0.31	i
[78] CCOc1ccccc1Oc1c(C)oc2c(CN3CCN(C)CC3)c(O)ccc2c1=O
  2.5%	1.3	i
[79] COc1ccc(C(=O)Nc2ccccc2C(=O)N(Cc2ccco2)C(C(N)=O)C(C)C)cc1 (centres undefined)
  -1.2%	nt	i
[80] CCCCC(NC(C)=O)c1nc2ccccc2n1CCC (centres undefined)
  2.4%	0.28	i

Screen by screen, from the results shown.
WNV NS2B-NS3 inh for nos. 62–65: 1.4, nt, -0.64, 1.5
Hsc70 ATP site for nos. 62–65: -4.8%, 1.3%, 3.0%, 3.1%
MT1-MMP reporter for nos. 62–65: i, i, i, i

Carrying on.
Value order – Hsc70 ATP site	WNV NS2B-NS3 inh	MT1-MMP reporter
[81] Cc1cc(C)nc(NC(=O)c2c(-c3c(Cl)cccc3Cl)noc2C)n1
  -4.3%	0.76	i
[82] O=S(=O)(Cc1ccc(Cl)cc1)N1CCCC1
  -1.5%	0.02	i
[83] COc1cc2cc(C(N)=O)c(N)nc2cc1OC
  -2.8%	nt	i
[84] Cc1nc(NCc2ccco2)c2oc3ccccc3c2n1
  -4.7%	-0.75	i
[85] CCOC(=O)CSc1nnc(N)s1
  7.8%	0.02	i
[86] Cc1nnc(SCC(=O)Nc2ccc3c(c2)OCO3)o1
  -6.5%	-0.17	i
[87] COc1ccccc1NS(=O)(=O)c1ccc(NC(C)=O)cc1
  -0.8%	0.27	i
[88] C=CCn1c(SCC(=O)NCc2ccc3c(c2)OCO3)nnc1C1COc2ccccc2O1 (centres undefined)
  -0.6%	-0.65	i
[89] COc1ccccc1N1CCN(CCOc2c(OC)cccc2OC)CC1
  0.3%	-0.33	i
[90] O=C1CCC(=O)N1OCCCCOc1ccccc1
  -2.5%	0.83	i
[91] CCOC(=O)N1CCC(N2C(=O)c3ccccc3C2Nc2cc(Cl)c(OC)cc2OC)CC1 (centres undefined)
  -0.8%	1	i
[92] Cc1cc(=O)[nH]c2c1cnn2Cc1ccccc1
  -4.1%	0.0024	i
[93] COc1ccccc1N(CC(=O)NC1CCCC1)C(=O)c1csnn1
  5.9%	1	i
[94] Cc1nc2nc(C)c(CCC(=O)Nc3ccc4c(c3)OCO4)c(C)n2n1
  5.8%	0.81	i
[95] CN(C(=O)c1ccc2c(c1)OCO2)C1(C(=O)NC2CCCC2)CCCCC1
  -0.7%	-0.42	i
[96] COc1ccc(CNC2CCCCC2C)c(OC)c1 (centres undefined)
  6.8%	-0.01	i
[97] CC1CCN(C(=O)CSc2nnc(Cn3c(=O)sc4ccccc43)n2C)CC1
  -2.0%	0.57	i
[98] CCC(C)(C)NC(=O)C(c1ccc(C)cc1)N(Cc1cccnc1)C(=O)c1csnn1 (centres undefined)
  -0.4%	nt	i
[99] Cc1cc(NC(=O)c2cc(-c3cccc(Cl)c3)on2)no1
  -1.5%	-0.2	i
[100] Cc1noc(C)c1CSc1nnc(-c2ccncc2)n1-c1ccc(Cl)c(Cl)c1
  8.6%	-0.56	i
[101] Cc1cc2ccccc2n1CCNC(=O)COc1ccccc1
  12%	-0.17	i
[102] O=C1CCC2c3ccc4ccccc4c3CCN12 (centres undefined)
  -7.0%	nt	i
[103] CCc1ccc(NC(=O)CSc2nc3ccccc3c(=O)n2CCCC(=O)N2CCCC2)cc1
  -0.8%	nt	i

High-throughput results deposited in PubChem BioAssay by several laboratories.
